RE007 growth inh: qHTS Assay for Inhibitors of the HIV-1 protein Vpr; S. pombe RE007 Vpr strain, BacTiter-Glo ATP luminescence, 24 h; control for the full effect not named in the record; Potency, µM (top dose mostly 92.2 µM), for the others: top-dose activity change, negative = less growth; hit rate 0.21% among 360,000; AID 651644, 2012; active = well fitted falling curve with a large enough effect; inconclusive = small, poorly fitted or top-dose-only effect; inactive = no such curve, though single readings can be large or run the other way;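 also: % is scaled to controls: 0 for no effect and ±100 for the full control effect; nearly all actives have a fitted effect of over 50% in size; the assay follows cell death caused by Vpr and the record does not say whether a fall means rescue or toxicity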
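Fission yeast strain RE007, carrying one chromosomally integrated HIV-1 vpr copy, was seeded at OD 0.01 in PMG+AL medium with 23 nL pinned compound. After 24 h at 30 °C and 99% humidity, viability was read by BacTiter-Glo luminescence.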
2A StopGo: High Throughput Screening for Foot and Mouth Disease Virus Antivirals; human cells with a luciferase reporter of 2A StopGo recoding; control for the full effect not named in the record; Potency, µM (series often up to 57.9 µM), for the others: top-dose signal change, negative = less light; hit rate 1.2% among 410,000; active = well fitted falling curve with a large enough effect; inconclusive = small, poorly fitted or top-dose-only effect; inactive = no such curve, though single readings can be large or run the other way; tested in HEK293T cells; also: % is scaled to controls: 0 for no effect and ±100 for the full control effect; nearly all actives have a fitted effect of over 45% in size; luciferase light after 4 h
Cruzain Triton: qHTS Assay for Promiscuous and Specific Inhibitors of Cruzain (with detergent); Potency, µM, without a hit: max response, negative = inhibition, hits mostly inhibitors; purified cruzain, Z-FR-AMC fluorescence, 0.01% Triton; hit rate 0.43% among 200,000;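 also: plate controls were neutral wells for no effect and buffer without enzyme for full effect; nearly all actives have a fitted effect of over 40% in size; top concentration of the series not given in the record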
Target sequence (P25779 123-467 limits assumed): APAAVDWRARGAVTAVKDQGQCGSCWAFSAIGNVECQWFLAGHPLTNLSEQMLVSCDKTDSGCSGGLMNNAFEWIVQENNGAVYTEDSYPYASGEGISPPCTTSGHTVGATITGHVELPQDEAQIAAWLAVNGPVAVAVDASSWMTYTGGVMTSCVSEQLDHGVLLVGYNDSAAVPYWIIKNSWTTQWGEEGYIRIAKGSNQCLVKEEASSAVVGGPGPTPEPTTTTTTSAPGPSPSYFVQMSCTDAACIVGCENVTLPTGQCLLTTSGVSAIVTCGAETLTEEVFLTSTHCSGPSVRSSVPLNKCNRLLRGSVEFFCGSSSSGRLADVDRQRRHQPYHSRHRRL
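Purified cruzain (1.5 nM final) was preincubated with compounds for 15 min at room temperature in 100 mM sodium acetate pH 5.5, 5 mM DTT, 0.01% Triton X-100. Reaction started with 2 uM Z-FR-AMC; AMC fluorescence change over 60 s gave activity.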
LASV entry inh: qHTS for Inhibitors of binding or entry into cells for Lassa Virus; Lassa virus pseudotype entry inhibition, cell reporter; control for the full effect not named in the record; Potency, µM (series often up to 37.9 µM), without a hit: at the top dose activity change, negative = inhibition, usual class: inhibitors; hit rate 1.2% among 300,000; AID 540256, 2011; active means well fitted inhibition curve with a large enough effect; inconclusive means small, poorly fitted or top-dose-only effect, or effect the other way; inactive means flat fitted curve, though single readings scatter; tested in HEK293 cells; also: % is scaled to controls: 0 for no effect and ±100 for the full control effect; nearly all actives have a fitted effect of over 50% in size; luciferase read-out
MARV entry inh: qHTS for inhibitors of binding or entry into cells for Marburg Virus; hit rate 1.8% among 300,000; Potency, µM (top dose mostly 37.8 µM), without a hit: at the top dose activity change, negative = inhibition, most hits filed as inhibitors; Marburg virus pseudotyped entry inhibition, cell reporter; control for the full effect not named in the record; about a third of the inactives were read at about 46 µM; active = well fitted inhibition curve with a large enough effect; inconclusive = small, poorly fitted or top-dose-only effect, or effect the other way; inactive = flat fitted curve, though single readings scatter; tested in HEK293 cells; about a fifth of its hits are not listed in these tables; also: % is scaled to controls: 0 for no effect and ±100 for the full control effect; luciferase read-out
Cruzain inh noDet: qHTS Assay for Promiscuous and Specific Inhibitors of Cruzain (without detergent). hit rate 2.3% among 200,000. Cruzipain (Trypanosoma cruzi), P25779. AID 1476, 2009. Potency, µM, without a hit: max response, negative = inhibition, actives largely listed as inhibitors. purified cruzain, Z-FR-AMC fluorescence, no detergent;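 also: plate controls were enzyme without inhibitor for no effect and buffer without enzyme for full effect; nearly all actives have a fitted effect of over 40% in size; top concentration of the series not given in the record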
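Detergent-free condition (0.00005% Triton X-100) in acetate buffer pH 5.5 with DTT. 1.5 nM enzyme and compound were pre-mixed 15 min, then 2 uM Z-FR-AMC substrate added; reaction progress from fluorescence change between first and third reads (60 s).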
SARS PLpro yeast: qHTS of Yeast-based Assay for SARS-CoV PLP. S. cerevisiae expressing SARS-CoV PLpro, growth rescue; control for the full effect not named in the record. Potency, µM (highest dose often 32.9 µM), for the others: at the top dose activity, positive = growth rescue. hit rate 0.19% among 330,000. AID 485353, 2010; active means well fitted rising curve with a large enough effect; inconclusive means small, poorly fitted or top-dose-only effect; inactive means no such curve, though single readings can be large or run the other way; also: 0% is about no effect; nearly all actives have a fitted effect of over 55% in size; growth read by luminescence after 48 h
NS1 inh: qHTS Assay for Inhibitors of Influenza NS1 Protein Function; S. cerevisiae slowed by influenza A NS1, growth recovery by OD600; Potency, µM (highest dose often 46.1 µM), for inactives: top-dose activity, positive = more growth; hit rate 0.4% among 270,000; AID 2326, 2010; active means well fitted rising curve with a large enough effect; inconclusive means small, poorly fitted or top-dose-only effect; inactive means no such curve, though single readings can be large or run the other way; also: nearly all actives have a fitted effect of over 50% in size
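Growth recovery, yeast-based: influenza A NS1 expressed in S. cerevisiae causes slow growth, and suppressors are detected by OD600. The parent strain without NS1 is used as positive control.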
The depositor's hits bear a star; u = inconclusive; x = not tested or not shown; & = joins results of further samples; [ ] = dose if it differs, or a comment. Unless noted, calls follow the shape of the dose curve; as a rule, active = well fitted curve in the direction sought with a large enough effect; inconclusive = small, poorly fitted or top-dose-only effect, or another doubt; inactive = no such curve, though single readings can be large; an effect the other way counts as inactive or inconclusive. Potency is read from the fitted curve at half-maximal effect.

Structure	RE007 growth inh	2A StopGo	Cruzain Triton	LASV entry inh	MARV entry inh	Cruzain inh noDet	SARS PLpro yeast	NS1 inh
COc1ccc(C(=O)CC2(O)C(=O)N(Cc3ccccc3)c3ccc(Br)cc32)cc1 (configuration not stated)	x	-3%	-8.8%	-20%[46.1 µM]	-27%[46.1 µM]	-10%	x	x
COc1ccc(NC(=O)N2CCC(c3nc4ccccc4[nH]3)CC2)cc1	12%	-9%	x	-1%	-2%[46.1 µM]	x	-4%	x
CCCS(=O)(=O)c1cn2cccc(N)c2c1S(=O)(=O)CCC	-14%	-13%	-8.7%	u	9%	-4%	-1%	7%
Cc1nc2ccc(NC(=O)CSc3nnc(C)s3)cc2[nH]1	1%	2%	x	13%	1%[46.1 µM]	x	-2%	-16%
Cc1ccccc1-c1nn(-c2ccc(F)cc2F)cc1CNC1CC1	-8%	-17%	x	17%	-6%[46.1 µM]	x	-1%	3%
CCCCCC1CC(CC(=O)NC(=S)Nc2ccccc2Cl)C(=O)O1 (configuration not stated)	2%	1%	x	u	23%[46.1 µM]	x	-1%	2%
CCC(=O)Nc1ccc(Nc2ccccc2)cc1	21%	47%[activator]	0.1%	-3%	6%	-10%	-3%	-13%
Cc1cc(C(C2C(=O)CC(C)(C)CC2=O)C2C(=O)CC(C)(C)CC2=O)cc(C)c1OC(F)F	-11%	2%	x	6%[46.1 µM]	2%[46.1 µM]	x	u	-3%
Cc1cc(C)cc(NS(=O)(=O)c2ccc3c(c2)NC(=O)C(C)S3)c1 (configuration not stated)	x	46%[activator]	-2.1%	22%[46.1 µM]	x	-1%	x	x
Cc1cc(=O)n(Cc2c(F)cccc2Cl)c2c1c(C)nn2C	x	-11%	-6.9%	6%[46.1 µM]	x	u	x	x
CCCCc1ccc(CC2S/C(=C(\C#N)C(=O)N3CCOCC3)N(c3ccccc3)C2=O)cc1 (configuration not stated)	22%	-1%	-1.6%	-29%	10%	u	-3%	10%
O=C(CCNC(=O)c1ccc(Cl)cc1)Nc1ccccc1N1CCCCC1	-7%	-27%	x	0%	u	x	-2%	x
COc1ccccc1OCc1nnc(SCC(=O)c2cc(Cl)ccc2OC)o1	-19%	u	-3.1%	21%	-11%	23%	2%	3%
Nc1ccc(-c2nc3ccc(-c4nc5ccccc5o4)cc3[nH]2)cc1	3%	32%[activator]	-12%	-29%	7.1µM*	u	-10%	5%
Cn1c(=O)c2[nH]c(N3CCOCC3)nc2n(-c2ccccc2)c1=O	1%	11%	7.0%	15%	8%	10%	0%	-1%
CC1(CCl)N([O-])C2=C(CCCC2)[N+]1=O (configuration not stated)	-1%	-17%	x	1%[46.1 µM]	4%[46.1 µM]	x	0%	-2%
CC(C)N1CCN(Cc2cccc3c2OCO3)CC1CCO (configuration not stated)	13%	0%	x	x	x	x	0%	-1%
Cc1cccc(Nc2nn3c(=O)c4cc5c(cc4nc3s2)OCO5)c1	x	35%[activator]	-3.7%	8%[46.1 µM]	x	-11%	x	x
CCOC(=O)C1CCCN(CC(O)COc2cccc(C)c2)C1 (configuration not stated)	-3%	-2%	1.8%	5%	-4%	1%	17%	u
CN(C(=O)COC(=O)CSc1ccc([N+](=O)[O-])cc1)C1CCS(=O)(=O)C1 (configuration not stated)	-11%	-12%	x	20%	-2%[46.1 µM]	x	-1%	x

Next structures follow.
Structure	RE007 growth inh	2A StopGo	Cruzain Triton	LASV entry inh	MARV entry inh	Cruzain inh noDet	SARS PLpro yeast	NS1 inh
Cc1cccc(Nc2nc(NCc3ccco3)nc(N)c2[N+](=O)[O-])c1	-3%	4%	x	u	5.6µM*	x	0%	-5%
Cc1cccc(CCNC(=O)Cn2ncc3c([nH]c4ccc(C)cc43)c2=O)c1	-14%	-22%	x	x	x	x	1%	-8%
COc1ccc2c(c1OC)C(=O)OC2C1c2cc3c(cc2CCN1C)OCO3 (configuration not stated)	17%	8%&-4%&10%	-5.8%&1.4%&0.0%&2.7%&1.1%	17%	u	-7%&2%&-9%&-12%&0%	0%	-6%&-11%
COc1cc(/C=N/NS(=O)(=O)c2ccc(C)c([N+](=O)[O-])c2)cc([N+](=O)[O-])c1O	-1%	-16%	x	15%[46.1 µM]	13%[46.1 µM]	x	1%	20%
COCCN(C(=O)CCc1nnc(CCc2c[nH]c3ccccc23)o1)C(C)C	7%	-7%	x	x	x	x	0%	1%
CC(C)Oc1ccc(C(=O)Nc2nonc2-c2ccc(OC(C)C)cc2)cc1	x	4%	4.3%	u	3%[46.1 µM]	-9%	x	x
Cc1nccn1CCc1nc(N)nc(N)n1	-6%	8%	4.6%	11%	4%	-8%	18%	9%
C#Cc1ccc([C@@H]2C=C(C(=O)Nc3ccccc3)O[C@H](OCC)[C@H]2CCCO)cc1	-1%	-16%	x	x	x	x	-2%	-1%
CCOc1ccc(C(=O)NCCO)cc1	8%	-2%	x	x	x	x	3%	-13%
COc1ccc2nc(N(Cc3cccnc3)C(=O)c3ccc(Cl)cc3)sc2c1	x	-21%	-0.3%	u	x	-12%	x	x
CCOc1ccc(-c2cc(C)n3nc(C(N)=O)cc3n2)cc1	-13%	0%	-5.4%	-11%	-15%	-12%	-3%	-10%
Cc1nn(Cc2cccc(C(N)=O)c2)c(C)c1Br	-2%	-28%	x	-16%	-19%	x	1%	2%
O=C(CNS(=O)(=O)c1ccc(F)c(Cl)c1)N1CCCC1	7%	2%	x	x	x	x	1%	-11%
Cc1ccc2c(c1)c1c(n2CC(O)CNC(CO)(CO)CO)CCCC1 (configuration not stated)	3%	-19%	-2.7%	x	x	2%	5%	2%
COc1cccc(C(C)N(C)Cc2nc(-c3ccoc3)oc2C)c1 (configuration not stated)	-8%	1%	x	-14%	-27%[46.1 µM]	x	1%	2%
COc1ccc(C(CCN2CCCC(C)C2)c2c(OC)cc(OC)c3c(C)cc(=O)oc23)cc1 (configuration not stated)	-17%	-8%	x	x	x	x	1%	-10%
Cc1ccc(C)c(Cn2c(=O)n(CC3CCC(C(=O)N4CCOCC4)CC3)c(=O)c3sccc32)c1 (configuration not stated)	x	u	-0.6%	-2%[46.1 µM]	x	4%	x	x
CCN(CC)S(=O)(=O)c1ccc2c(c1)nc(CCC(=O)OCC(=O)Nc1cc(Cl)cc(Cl)c1)n2C	-4%	16%	-16%	2%	0%	u	4%	u
N#Cc1ccc(Oc2ccc(C(F)(F)F)cc2NC(=O)c2ccc(F)cc2)cc1	10%	-1%	x	-21%[46.1 µM]	u	x	0%	2%
O=C(Nc1ccc(F)cc1)c1ccc(-n2cnnc2)cc1	x	0%	-0.4%	11%[46.1 µM]	x	2%	x	x

More results:
Structure	RE007 growth inh	2A StopGo	Cruzain Triton	LASV entry inh	MARV entry inh	Cruzain inh noDet	SARS PLpro yeast	NS1 inh
Cc1noc(C)c1COC(=O)c1cccc(N(C)C)c1	3%	0%	x	u	11%[46.1 µM]	x	-2%	x
Cc1ccn2cc(CSc3ccccc3N)nc2c1	-5%	9%	-0.4%	4%	-3%	1%	-1%	1%
CC(C)(C)OC(=O)N1CCC(c2c(C(=O)N3CCN(c4ncccn4)CC3)cnn2-c2ccc(F)cc2)CC1	x	-9%	-0.8%	8%[46.1 µM]	x	-6%	x	x
CCOCCCNCc1cc(Cl)ccc1OCC	-9%	-16%	x	x	x	x	0%	-5%
Clc1ccccc1CN1CCN(/N=C/c2ccncc2)CC1	-7%	u	x	x	x	x	-2%	15%
O=[N+]([O-])c1cccc(-c2cc3ccccc3[nH]2)c1	-23%	22%	x	x	x	x	-6%	-28%
COc1ccccc1/C=N/NC(=O)c1c(-c2ccccc2)noc1C	-11%	25%	x	12%[46.1 µM]	1%[46.1 µM]	x	0%	3%
CCOc1ccc(C(=O)N(Cc2cc(OC)c(OC)c(OC)c2)c2ccccn2)cc1	x	u	-1.7%	-9%[46.1 µM]	u	27%	x	x
COc1ccc(NCc2cc3cc(OC)ccc3[nH]c2=O)cc1	17%	x	-8.5%	u	-20%	-6%	-5%	-14%
COc1ccccc1-n1cc(C(=O)NCC(=O)N2CCN(c3ccccn3)CC2)c2ccccc2c1=O	-3%	29%	x	x	x	x	0%	-15%&-3%
O=Nc1nc2ncccn2c1-c1ccccc1	u	u	x	-1%[46.1 µM]	-9%	x	x	x
CCOC(=O)c1c(=O)n(O)c2ccc(OC)cc2[n+]1[O-]	-19%	-15%	-2.4%	1%	1%	-2%	-3%	15%
COC(=O)c1ccc(NC(=O)Cn2cnc3c2c(=O)n(C)c(=O)n3C)cc1	x	-13%	-20%	-10%[46.1 µM]	x	-17%	x	x
CN1CCCN(C(=O)CC2(CC(=O)O)CCCCC2)CC1	-6%	-12%	x	-28%	-1%	x	2%	-45%
COc1ccc(CN(C)S(=O)(=O)c2nnc(NC(=O)C(C)C)s2)cc1OC	x	u	-5.6%	-1%[46.1 µM]	x	-9%	x	x
COc1cc(/C=N\Nc2nc(-c3ccc(C)cc3)c(NC(C)=O)s2)ccc1O	-4%	14%	x	x	x	x	0%	8%

Profiles, quoted from the list.
Entry for CCOC(=O)C1CCCN(CC(O)COc2cccc(C)c2)C1 (configuration not stated) : RE007 growth inh: -3%; 2A StopGo: -2%; Cruzain Triton: 1.8%; LASV entry inh: 5%; MARV entry inh: -4%; Cruzain inh noDet: 1%; SARS PLpro yeast: 17%; NS1 inh: u
Entry for COc1cc(/C=N/NS(=O)(=O)c2ccc(C)c([N+](=O)[O-])c2)cc([N+](=O)[O-])c1O : RE007 growth inh: -1%; 2A StopGo: -16%; Cruzain Triton: x; LASV entry inh: 15%[46.1 µM]; MARV entry inh: 13%[46.1 µM]; Cruzain inh noDet: x; SARS PLpro yeast: 1%; NS1 inh: 20%

Screens from PubChem BioAssay.
